Screening results: PubChem, National Center for Advancing Translational Sciences (NCATS)
Resorufin fluor: qHTS Assay for Spectroscopic Profiling in Resorufin Spectral Region; 59,000 compounds, 0.04% hits; Compound fluorescence, resorufin region 547/598 nm, buffer; active compounds read high; AID 588, 2007; max dye-equivalent concentration, M; active = above 10 nM dye equivalent; inconclusive = 1 to 10 nM; inactive = 1 nM or less; a few of its hits are not listed in these tables; also: highest value over a series up to 38 µM
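Dye-equivalent concentration values derive from comparing each well's 547/598 nm fluorescence against resorufin standards included on every plate. Incubation was 15 min at room temperature in 100 mM Tris, pH 8.0.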
TSHR ag: qHTS Assay for Agonists of the Thyroid Stimulating Hormone Receptor. Thyrotropin receptor (Homo sapiens), P16473. HEK293-CNG-TSHR cells (CNG channel as cAMP sensor), membrane potential dye, cAMP. Potency, µM (top dose mostly 57.1 µM), for inactives: at the highest dose activation, hits mostly activators. 73,000 compounds, 0.48% hits; active = well fitted activation curve of enough size with the parental cells flat; inconclusive = any curve in the parental cells; inactive = parental cells flat and receptor cells flat or falling; also: potency is read from the fitted curve at half-maximal effect; % of control where 0% means no effect; weak receptor curves with flat parental cells got no call and are not listed
Target sequence (P16473 whole entry, looked up): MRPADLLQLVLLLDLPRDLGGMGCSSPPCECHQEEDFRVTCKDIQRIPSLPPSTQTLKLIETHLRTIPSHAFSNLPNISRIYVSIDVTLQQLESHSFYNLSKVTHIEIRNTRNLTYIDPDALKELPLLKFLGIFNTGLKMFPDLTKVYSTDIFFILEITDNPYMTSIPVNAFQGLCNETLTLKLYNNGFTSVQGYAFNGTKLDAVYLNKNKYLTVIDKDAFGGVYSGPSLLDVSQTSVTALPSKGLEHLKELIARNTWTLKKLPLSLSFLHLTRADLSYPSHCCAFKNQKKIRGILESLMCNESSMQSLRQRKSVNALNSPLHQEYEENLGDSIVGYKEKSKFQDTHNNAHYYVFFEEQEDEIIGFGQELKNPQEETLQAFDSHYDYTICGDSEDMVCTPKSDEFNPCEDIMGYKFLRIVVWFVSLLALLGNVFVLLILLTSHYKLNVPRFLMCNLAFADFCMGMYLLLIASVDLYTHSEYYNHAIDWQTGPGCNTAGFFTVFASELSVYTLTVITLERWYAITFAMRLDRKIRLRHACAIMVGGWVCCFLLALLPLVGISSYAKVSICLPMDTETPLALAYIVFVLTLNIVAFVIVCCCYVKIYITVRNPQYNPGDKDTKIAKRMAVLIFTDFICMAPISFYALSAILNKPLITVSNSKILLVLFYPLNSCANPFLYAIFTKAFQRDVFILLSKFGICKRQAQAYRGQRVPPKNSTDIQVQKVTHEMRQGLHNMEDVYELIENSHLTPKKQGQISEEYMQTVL
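cAMP rise detected as CNG-channel membrane depolarization by fluorescent dye (emission 590 nm), 30 min after compound, following 60 min dye loading containing 100 uM RO 20-1724 at room temperature. Cells: TSHR/CNG HEK 293, with parental CNG HEK 293 as control.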
AID923: qHTS Assay for Allosteric/Competitive Inhibitors of Caspase-1: Spectroscopic Profiling in AFC Spectral Region; Potency, µM (titrated, usually from 57.5 µM), without a hit: at the highest dose fluorescence increase, actives largely listed as activators; AID 923, 2007; 75,000 compounds, 1.1% hits; compound fluorescence, AFC spectral region (405/520 nm); almost no hit is shown here; active = well fitted activation curve with a large enough effect; inconclusive = small, poorly fitted or top-dose-only effect;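 also: potency is read from the fitted curve at half-maximal effect; 0% is about no effect; scaled to a free AFC standard on each plate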
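Titrations up to 57 uM read every 20 sec for 3 min (405/520 nm) with 50 nM caspase 1 and 5 uM Ac-WEHD-AFC, pH 7.5 HEPES buffer. Fluorescence-vs-time intercept gave baseline, scaled against on-plate AFC standard.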
A647 autofl: qHTS Assay for Spectroscopic Profiling in A647 Spectral Region; Compound fluorescence, A647 channel (570/671 nm), Tris buffer; max dye-equivalent concentration, M; 59,000 tested, under 10 active; AID 592, 2007; active means above 1 µM dye equivalent; inconclusive means 0.1 to 1 µM; inactive means 0.1 µM or less;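 also: values scaled relative to a standard on each plate; highest value over a series up to 38 µM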
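Compound fluorescence was measured in 100 mM Tris buffer, pH 8.0, after 15 min at room temperature, using 570 nm excitation and 671 nm emission filters. Signal was normalized to a per-plate Alexa 647 standard curve and expressed as dye-equivalent concentration at each compound concentration.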
A488 autofl: qHTS Assay for Spectroscopic Profiling in A488 Spectral Region; AID 591, 2007; 59,000 compounds, 0.1% hits; max dye equivalency, M; compound autofluorescence, A488 spectral region, dye equivalency; active compounds read high; active = above 10 nM dye equivalent; inconclusive = 1 to 10 nM; inactive = 1 nM or less; about half of its hits are not listed in these tables;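 also: highest value over a series up to 38 µM; compound alone in buffer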
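Compound autofluorescence was read in 100 mM Tris pH 8.0 after 15 min at room temperature, ex 480 nm/em 540 nm. Intensities were converted to A488 dye-equivalent concentration using an on-plate six-point A488 standard curve.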
* hit, by the source's call; i = inactive; ? = inconclusive; / = not tested or not shown; [ ] = dose if it differs, or a comment. Some of the compounds tested; rates above refer to the full screens.

SMILES	Resorufin fluor	TSHR ag	AID923	A647 autofl	A488 autofl
Cc1ccc(SCc2[nH]nc3c2C(c2cccnc2)C(C#N)=C(N)O3)cc1 (centres undefined)	i	-1%	2.4%	1e-09	i
COC(=O)c1ccc(N2C(=O)CC(SCCN)C2=O)cc1 (centres undefined)	/	1%	-0.4%	/	/
CO[C@@H]1COC(=O)CC=C[C@@H](C)[C@@H]2C=C[C@@H](O)[C@@H](COC(=O)C/C=C\[C@H]1C)O2	/	-7%[11.4 µM]	-0.6%[11.5 µM]	/	/
COc1ccc(/C(O)=C2/C(=O)C(=O)N(CCCN(C)C)C2c2ccc(C)o2)cc1Cl (centres undefined)	i	/	/	4e-08	i
O=C(Nc1ccc2c(c1)OCCO2)C1CCCN1S(=O)(=O)c1cccc2cccnc12 (centres undefined)	/	-7%	-1.9%	/	/
CC(C)[C@@H](OCc1ccccc1)[C@H](C)CO/N=C1/[C@H]2OC2[C@@H](O)[C@H]2[C@H]1CCn1c(=O)n(-c3ccccc3)c(=O)n12 (some centres undefined)	/	-3%[11.4 µM]	-4.4%[11.5 µM]	/	/
Cn1cccc1C(=O)N1CCC[C@@]2(CCN(c3ccncc3)C2)C1	i	?	-0.1%	1e-09	i
COC(=O)c1c(C)oc2ccc(OC(=O)c3cccs3)cc12	/	?	12%	/	/
OC(COCc1ccc(Cl)cc1)CN1CCN(CC(O)COCc2ccc(Cl)cc2)CC1 (centres undefined)	i	18%	1.2%	2.5e-08	i
CC(=O)NC1(c2ccccc2)CCN(C(=O)N2CCOCC2)CC1	i	-5%	1.9%	1e-09	i
COc1ccc(CCC(=O)c2c(O)cc(O[C@@H]3O[C@H](CO)[C@@H](O)[C@H](O)[C@H]3O[C@@H]3O[C@@H](C)[C@H](O)[C@@H](O)[C@H]3O)cc2O)cc1O	/	?	-2.0%	/	/
CCN1C(=S)SC(=O)C1=C1C=C(C)N(Cc2ccco2)C(C)=C1	i	-21%	6.3%	4.7e-09	i

Profiles, looked up by structure. Values in the order: Resorufin fluor, TSHR ag, AID923, A647 autofl, A488 autofl
Record of `CO[C@@H]1COC(=O)CC=C[C@@H](C)[C@@H]2C=C[C@@H](O)[C@@H](COC(=O)C/C=C\[C@H]1C)O2` → /, -7%[11.4 µM], -0.6%[11.5 µM], /, /
Record of `Cn1cccc1C(=O)N1CCC[C@@]2(CCN(c3ccncc3)C2)C1` → i, ?, -0.1%, 1e-09, i
Record of `O=C(Nc1ccc2c(c1)OCCO2)C1CCCN1S(=O)(=O)c1cccc2cccnc12` (centres undefined) → /, -7%, -1.9%, /, /
Record of `CC(=O)NC1(c2ccccc2)CCN(C(=O)N2CCOCC2)CC1` → i, -5%, 1.9%, 1e-09, i
Record of `COc1ccc(CCC(=O)c2c(O)cc(O[C@@H]3O[C@H](CO)[C@@H](O)[C@H](O)[C@H]3O[C@@H]3O[C@@H](C)[C@H](O)[C@@H](O)[C@H]3O)cc2O)cc1O` → /, ?, -2.0%, /, /

Further records:
SMILES	Resorufin fluor	TSHR ag	AID923	A647 autofl	A488 autofl
CCc1ccccc1N(CC(=O)OC)S(C)(=O)=O	i	8%	-0.1%	1.5e-08	i
COc1ccc(OC)c2[nH]c(=O)c(CCNS(=O)(=O)c3ccccc3)cc12	i	19%	0.1%	3.9e-09	i
COc1cccc(-c2nccc(N(C)Cc3ccco3)n2)c1	i	8%	2.3%	5.2e-09	i
Oc1c(Cl)cc(C(c2cc(Cl)c(O)c(Cl)c2)C(c2cc(Cl)c(O)c(Cl)c2)c2cc(Cl)c(O)c(Cl)c2)cc1Cl	i	11%[11.4 µM]	-4.2%[11.5 µM]	5.2e-08	i
COc1cccc(OCc2nc3c4cnn(-c5ccccc5)c4ncn3n2)c1	i	10%	2.0%	1e-09	i
COc1ccccc1CNc1cc(-c2cccnc2)ncn1	i	?	0.5%	1e-09	i
COc1ccc2c(c1)CCc1c(C(=O)NCCN3CCOCC3)noc1-2	i	?	2.7%	6.8e-09	i
CCn1c(SCC(=O)c2ccc3c(c2)OCCO3)nnc1C(C)C	i	-1%	0.0%	1e-09	i
COc1ccc(N2CCN(Cc3nc4c(c(=O)n(C)c(=O)n4C)n3CCc3ccccc3)CC2)cc1	/	?	1.6%	/	/
O=C(Nc1sc2c(c1C(=O)NCc1ccco1)CCCC2)c1ccc2c(c1)OCO2	i	?	14%	5.3e-09	i
Cc1ccccc1-c1cc(N(C)C)ncn1	i	21%	3.4%	1e-09	i
O=C(NCC1CCCO1)c1ccc(COCC(F)(F)C(F)F)cc1 (centres undefined)	i	-2%	-2.2%	1.5e-08	i
O=C(CC(c1ccco1)C1CCCCC1=O)c1ccco1 (centres undefined)	i	6%	-2.6%	9.6e-09	i
Cc1ccc(-c2nnc3sc(-c4ccncc4)nn23)cc1	i	-4%	1.4%	1e-09	i
Cc1cc(C(C)(C)C)oc1C(=O)Nc1ccc(CC(=O)O)cc1	/	-8%	0.3%	/	/
COc1cc(S(=O)(=O)n2nnc3ccccc32)c(OC)cc1Cl	i	?	-2.4%	2e-08	i
Cc1ccc(OCc2nnc(NC(=O)Cc3cccs3)s2)cc1	i	-1%	0.3%	9.7e-09	i
Cc1c(C(Nc2ccccn2)c2ccccc2)c(=O)n(-c2ccccc2)n1C (centres undefined)	i	/	/	1e-09	i
Cn1c2ccccc2c2c(C(=O)O)cn(C3CCCC3)c(=O)c21	/	44%	-1.8%	/	/
CSc1nc(C)cc(Oc2ccc(=O)n(C)n2)n1	i	14%	-1.2%	1e-09	i
CC(C)(C)NC(=O)C(c1ccco1)N(C(=O)c1ccc(CN2CCOCC2)o1)c1ccccc1 (centres undefined)	i	-2%	0.0%	4.9e-08	i
CCOC(=O)c1c(C)n(C)c2ccc(OC)c(NS(=O)(=O)c3ccc(Cl)s3)c12	i	?	-1.0%	4e-09	i
COc1cc2nc(SCC(N)=O)n(CCC3=CCCCC3)c(=O)c2cc1OC	i	1%	-0.1%	2.5e-08	i
CC(c1ccccc1)N1CC(C(=O)NC2CCCC2)CC1=O (centres undefined)	i	5%[11.4 µM]	0.1%	1.8e-08	i
N#Cc1ccc(CSCC(=O)O)cc1	/	12%	2.2%	/	/
O=c1c2ccccc2sn1-c1cc(S(=O)(=O)N2CCOCC2)ccc1N1CCOCC1	i	-10%	-0.1%	1e-09	i
CN(C)C(CNC(=O)C1CCCN(C(=O)c2ccc(Cl)cc2)C1)c1ccco1 (centres undefined)	i	2%	2.8%	2.5e-08	i
Cc1ccc(/C=c2\sc3nc(-c4ccco4)nn3c2=O)o1	i	8%[11.4 µM]	6.8%	1.9e-08	i
CCOc1ccccc1N(C(=O)c1snc(C(N)=O)c1N)C(C(=O)NC1CCCC1)c1ccco1 (centres undefined)	i	?	5.8%	3e-08	i
COc1ccc(N(CC(=O)NC2CCCC2)C(=O)Cn2nnc(-c3ccc(C)cc3)n2)cc1	i	9%	-0.1%	1.4e-09	i
CCCCNC(=O)C1COc2ccccc2O1 (centres undefined)	/	14%	-1.1%	/	/
Cc1noc(C)c1S(=O)(=O)N1CCC(C(=O)NCCN2CCC(C)CC2)CC1	i	-2%	2.1%	4.2e-09	i
CC1CC(C(O)c2ccccn2)C(=O)C(C(O)c2ccccn2)C1 (centres undefined)	i	-4%[11.4 µM]	1.0%	3.5e-09	i
CSc1ccccc1NC(=O)c1cc(-c2cccs2)on1	i	/	1.0%	1e-09	i
COc1ccc(N2C(=O)CSC23C(=O)Nc2ccccc23)cc1OC (centres undefined)	i	-2%	-1.9%	6e-09	i
COc1ccc(N(C(=O)c2ccco2)C(C(=O)NC2CCCC2)c2ccc(N(C)C)cc2)cc1OC (centres undefined)	i	7%	-0.9%	8.7e-09	i
O=c1c2cccc3c(N4CCOCC4)ccc(c32)c2nc3ccccc3n12	i	15%	0.5%	2.1e-08	i
COc1ccc(N2CCN(Cc3cc(=O)oc4cc(C)c(Cl)c(C)c34)CC2)cc1	i	-8%	3.3%	8.4e-09	i
COc1ccc(C(=O)NC2CCN(C(=O)NC3CCCCC3)CC2)cc1	i	4%	0.8%	1.3e-08	i
CCOC(=O)C1CCN(C(=O)CC(NS(=O)(=O)c2ccc(OC)cc2)C(C)C)CC1 (centres undefined)	i	4%	-0.2%	2.3e-08	i
CCN(CC)C(=O)C(C)N(C#N)c1nc(NC(C)C)nc(NC(C)C)n1 (centres undefined)	/	25%	-0.8%	/	/
CC(C)(C)c1[nH]nc2c1C(Cc1ccccc1)C(C#N)=C(N)O2 (centres undefined)	i	-12%	-2.1%	1.3e-08	i
CCCn1nc(C(=O)NCCN2CCOCC2)c2ccccc2c1=O	i	11%	0.1%	1.4e-08	i
COc1ccc(C(=O)N2CCCCC2)cc1S(=O)(=O)Nc1ccccc1	i	?	0.1%	3.4e-08	i
Cc1ccc(S(=O)(=O)NC2=NCN(CCN3CCOCC3)CN2)cc1	i	-4%	0.7%	2.1e-08	i
CCn1c(-c2cc(OC)c(OC)c(OC)c2)n[nH]c1=S	i	13%	-0.6%	1e-09	i
CC(=O)OCC(=O)[C@@]1(OC(C)=O)[C@H](C)C[C@H]2[C@@H]3C[C@H](F)C4=CC(=O)C=C[C@@]4(C)[C@]3(F)[C@H](O)C[C@@]21C	i	-3%[25.6 µM]	-1.4%[25.7 µM]	4.2e-08	i
O=c1c(N2CCOCC2)nsnc1N1CCOCC1	/	6%[11.4 µM]	-1.3%	/	/
CCCn1c(=O)c2ccccc2n2c(SCN3C(=O)c4ccccc4C3=O)nnc12	i	2%	-0.5%	3.1e-09	i
O=C(c1cccc(F)c1)N1CCN(C(=O)c2nn3cccnc3c2Cl)CC1	i	-9%	0.1%	2.5e-09	i
O=C(Cc1ccccc1)n1nc(-c2ccccc2)nc1NCc1ccco1	/	18%	1.3%	/	/
C[C@@]12CC[C@@H]3[C@@H](CC[C@H]4C[C@@H](O)CC[C@]43C)[C@H]1CC[C@@H]2c1cc(C(F)(F)F)n[nH]1	i	9%[11.4 µM]	-5.1%[11.5 µM]	1e-09	i
CC1(c2ccc(Cl)cc2Cl)OCC(Cn2ccnc2)O1 (centres undefined)	i	?	-0.2%	7.1e-09	i
CS(=O)(=O)N1CCC2(CCCN(Cc3cc(C(F)(F)F)cc(C(F)(F)F)c3)C2)CC1	i	/	2.5%	1.2e-08	i
Oc1c(CN2CCc3ccccc3C2)cc(Cl)c2cccnc12	/	0%	2.5%	/	/
CCOc1ccc(-n2c(Cc3cc(=O)[nH]c(=O)[nH]3)nnc2SCC(=O)NC2CCCC2)cc1	/	3%	2.0%	/	/
CCn1c(C(=O)NCCCN2CCc3ccccc3C2)cc2sccc21	/	?	1.9%	/	/
N#Cc1ccc(N2CCN(C(=O)c3cccc(F)c3)CC2)c(F)c1	/	1%	3.0%	/	/
CCn1c(CSc2nc3ccccc3s2)nc2ccccc21	/	?	17%	/	/
COC(=O)c1nnn(-c2nonc2N)c1CN1CCc2ccccc21	i	-18%	-1.2%	2.5e-08	i

Following part:
SMILES	Resorufin fluor	TSHR ag	AID923	A647 autofl	A488 autofl
COc1cccc(C2c3c(oc4ccccc4c3=O)C(=O)N2CCCN2CCOCC2)c1 (centres undefined)	/	-1%	0.7%	/	/
Nc1cc(C2CCCC2)nn1-c1ccccc1	i	-3%	-1.1%	3.8e-08	i
CCN(CC)c1nc(Nc2ccccc2)nc(Oc2ccc(=O)[nH]n2)n1	i	11%	1.6%	5.1e-09	i
O=C(c1cc(-c2ccco2)on1)N1CCN(C(c2ccccc2)c2ccccc2)CC1	i	21%	1.1%	1e-09	i
COc1ccccc1CNS(=O)(=O)c1ccc2[nH]cc(C(=O)O)c(=O)c2c1	i	-4%	0.7%	2.3e-09	i
